# PKD1 inh: inhibitors of human PKD1 kinase, biochemical, fluorescence polarization; PKD1 kinase fluorescence polarization assay; inhibition, %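 (about 10 µM by stock and volumes)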; actives 0.056% (n = 200,000);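 active = inhibition of 50% or more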;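 also: controls were vehicle for no effect and a reference inhibitor for full effect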
# HSV replic up: enhancers of HSV replication in host cells, fold increase, host cell viability; actives 0.005% (n = 220,000); AID 1956, 2009; HSV replication augmentation in cells; maximum fold increase;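 active = peak rise of 1.5-fold or more in the series; inconclusive = self-fluorescent or not available for retest; tested in PC3 cells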;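 also: first round at 10 µM; read as green reporter fluorescence; hits show the peak of a series up to 25 µM; 1 = signal of infected wells without compound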
# RGS16-Gao: modulators of RGS16 binding to Galphao, primary screen, biochemical, human proteins, multiplexed bead flow cytometry. AID 1441, 2008. actives 0.38% (n = 220,000). binding response (% of control), % at 10 µM. Regulator of G-protein signaling 16 (Homo sapiens) + Guanine nucleotide-binding protein …. bead-based flow cytometry RGS16-Galphao binding, fluorescence; actives lie on both sides;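 active = below 25% or above 175%, edge rows of some plates excepted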;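 also: Galphao activated by GDP with aluminum fluoride before binding; 100% = wells without compound and 0% = beads without RGS; some results beyond the cut were filed as inactive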
# Target sequence (O15492 whole entry, looked up): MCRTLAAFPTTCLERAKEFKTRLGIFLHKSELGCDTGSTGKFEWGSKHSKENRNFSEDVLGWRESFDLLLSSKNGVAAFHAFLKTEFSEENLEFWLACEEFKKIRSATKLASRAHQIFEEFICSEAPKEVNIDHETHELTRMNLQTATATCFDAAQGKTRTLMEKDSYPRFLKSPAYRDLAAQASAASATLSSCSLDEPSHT
# Target sequence (P09471 whole entry, looked up): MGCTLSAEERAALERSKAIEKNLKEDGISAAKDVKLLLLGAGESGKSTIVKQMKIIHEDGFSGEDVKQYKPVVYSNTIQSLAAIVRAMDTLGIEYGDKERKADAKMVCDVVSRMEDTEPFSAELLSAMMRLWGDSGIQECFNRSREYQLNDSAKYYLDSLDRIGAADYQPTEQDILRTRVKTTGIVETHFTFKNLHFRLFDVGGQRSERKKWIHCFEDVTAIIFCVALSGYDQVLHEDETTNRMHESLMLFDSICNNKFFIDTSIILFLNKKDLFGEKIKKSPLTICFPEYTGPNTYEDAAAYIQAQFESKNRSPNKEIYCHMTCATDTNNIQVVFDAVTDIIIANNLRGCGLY
# INS promoter inh: inhibitors of insulin promoter-driven GFP, primary screen, imaging, TRM-6 cells (human fetal islet line), eGFP reporter, cell count | AID 1273, 2008 | actives 0.9% (n = 130,000) | reporter expression induced with tamoxifen | inhibition, % at 2 µM;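 active = inhibition above the mean plus 3 SD, with well images judged a real hit on visual review, cut at about 60% in these data, passing the limit was not always enough; inconclusive = inhibition over the cutoff but images rejected on review; inactive = inhibition not above the cutoff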
# GALR2 agonist: GALR2 receptor agonists, primary screen, cell-based; actives 0.48% (n = 140,000); GALR2-expressing cells, agonist activation read-out; AID 803, 2007; activation, %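 (tested at 5 µM)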; Galanin receptor type 2 (Homo sapiens), O43603;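 active = above mean plus 3 SD of all compounds, about 5% in these data, not always enough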;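 also: 0% = vehicle buffer wells and 100% = reference agonist at full effect; tested in CHO reporter cells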
# Target sequence (O43603 whole entry, looked up): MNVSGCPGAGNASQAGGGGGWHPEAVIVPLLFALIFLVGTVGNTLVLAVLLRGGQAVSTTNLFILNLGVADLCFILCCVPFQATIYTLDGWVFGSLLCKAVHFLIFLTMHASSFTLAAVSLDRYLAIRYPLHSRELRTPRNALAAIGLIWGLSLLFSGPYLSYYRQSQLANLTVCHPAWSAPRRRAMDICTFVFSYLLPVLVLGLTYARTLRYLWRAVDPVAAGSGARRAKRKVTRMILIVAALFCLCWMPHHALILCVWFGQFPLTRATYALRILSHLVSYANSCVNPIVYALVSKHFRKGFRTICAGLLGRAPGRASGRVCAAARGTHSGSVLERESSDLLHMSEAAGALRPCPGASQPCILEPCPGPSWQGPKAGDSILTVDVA
# INS promoter inh cell count: second read-out of INS promoter inh, no call of its own (marks repeat the call); normalized cell count, %; measured here: cell count, toxicity; reference of the scale not given here;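 cells exposed to compound for 48 h; stained nuclei by imaging scaled within each plate; lower means fewer cells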
# HSV replic up primary fold: also measured in HSV replic up; calls as there; fold increase; compound at 10 µM; measured here: primary screen fold increase 10 uM; tested in PC3 cells;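 GFP signal in the first replicate; 1 = infected wells without compound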
# Starred values were filed as active, the others as inactive; i = inactive; ? = inconclusive; . = not tested or not shown.
No.	molecule	PKD1 inh	HSV replic up	HSV replic up primary fold	RGS16-Gao	INS promoter inh	INS promoter inh cell count	GALR2 agonist
1	C=CCn1c(CNC(=O)c2cccs2)n[nH]c1=S	-6	i	0.99	108	-23	100	0.6
2	Cc1cccc2c1N(CCCOc1ccc(C(C)(C)C)cc1)C(=O)C2=O	-3	i	0.85	96	.	.	-3.0
3	O=P(COCCOCCOCCOCP(=O)(c1ccccc1)c1ccccc1)(c1ccccc1)c1ccccc1	-6	i	0.9	100	.	.	.
4	C=CCNC(=O)COC(=O)c1oc2ccccc2c1CSC1CCCCC1	5	i	1.1	102	.	.	0.0
5	Cc1noc(C)c1COc1ccc(C(=O)OCC(N)=O)cc1	-2	i	1	101	.	.	.
6	O=C(C1CCN(S(=O)(=O)c2cccnc2)CC1)N1CCN(c2cccc(Cl)c2)CC1	15	i	0.97	62	.	.	-0.9
7	CCOC(=O)c1ccc(NC(=O)Oc2cc(C)c(Cl)cc2C(C)C)cc1	.	i	0.8	95	.	.	.
8	COc1ccc(-c2noc(CCC(=O)O)n2)cc1	-9	i	0.95	94	-83	132	-1.4
9	O=C(CN(C1CC1)S(=O)(=O)c1ccc(S(=O)(=O)N2CCCCCC2)cc1)Nc1ccccc1	-1	i	0.82	115	-31	118	-2.2
10	Cc1ccc(C(=O)NNC(=O)c2cccc(C)c2)cc1	-3	i	0.94	100	21	78	.
11	CCOC(=O)c1nc2ccccc2nc1C	-6	i	0.85	102	-129	119	-1.5
12	Cc1cccc(Nc2nc3ccccc3n3nnnc23)c1	-4	i	0.83	100	-25	51	.
13	Cc1c(O)ccc2c(=O)c(-c3nncn3-c3ccccc3)coc12	1	i	0.97	105	.	.	.
14	Cc1ccc(NC(=O)Nc2cccc(C(F)(F)F)c2)nc1	-1	i	1.1	102	11	119	.
15	Cc1cccc(NC(=O)C2(c3ccc([N+](=O)[O-])cc3)CCCC2)c1	-6	i	0.9	97	-25	119	-0.6
16	COc1cccc(OC)c1C(=O)N1CCN(c2ccccn2)CC1	4	i	0.91	103	50	92	-0.1
17	N#CC1(C#N)COC23CCCCC2C1(C#N)C(=N)O3 (configuration not stated)	7	i	1.1	99	27	51	-0.8
18	COc1ccccc1NC(=O)CSc1nc(O)c(Cc2ccccc2)c(=O)[nH]1	-2	i	0.95	114	3	102	-1.7
19	CC1CCCCN1C(=O)Cn1c(=O)n(CCC(=O)NCc2ccco2)c(=O)c2sccc21 (configuration not stated)	1	?	.	115	.	.	0.5
20	O=C(c1cccc(S(=O)(=O)NCc2ccccc2)c1)N1CCCC1	-5	i	0.98	99	.	.	.
21	CCOC(=O)c1c(C)oc2ccc(NS(=O)(=O)c3ccc4c5c(cccc35)C(=O)N4)cc12	-4	i	0.91	103	i	53	-1.3
22	CS(=O)(=O)Nc1ccc(C2=NN(C(=O)c3ccco3)C(c3ccccc3)C2)cc1 (configuration not stated)	-3	i	0.89	101	4	119	1.0
23	CCCOC(=O)NC(CC)COC(=O)Nc1cc(C)ccc1C (configuration not stated)	-4	i	0.87	102	.	.	-3.7
24	CC(C)CCNC(=O)c1ccc(CS(=O)(=O)Cc2ccccc2F)o1	0	i	0.98	104	0	103	.
25	Cc1cc(OCCOc2cccc3cccnc23)c(C)cc1Cl	8	i	0.83	104	4	110	-1.7
26	O=C(CNCCc1ccccc1)N1CCc2ccccc2C1	2	i	0.9	100	-33	156	.
27	CSc1cccc(NC(=O)Cc2ccccc2[N+](=O)[O-])c1	1	i	0.96	104	.	.	.
28	CC(=O)c1cccc(NC(=O)CN(c2ccc(C)cc2)S(=O)(=O)c2cccc3nonc23)c1	13	.	.	97	.	.	-0.5
29	Cc1ccc2nc(N(CCCN(C)C)C(=O)c3sc4ccccc4c3Cl)sc2c1	2	i	0.78	104	39	98	-0.2
30	CCOC(=O)c1c(NC(=O)CN(CC)CC)sc2c1CCC2	-5	i	0.74	106	.	.	-1.2
31	COc1ccc(-n2cccc2/C=C2\C(=N)N3N=C(C(C)C)SC3=NC2=O)cc1	-6	i	0.93	102	-25	122	.
32	COCCNC(=S)Nc1ccc(N2CCCCC2)cc1	-1	i	1.1	90	.	.	.
33	COc1ccccc1/C=C/C(=O)NCC(=O)N/N=C/c1cc(Br)ccc1OC	-2	i	0.93	95	38	72	-0.8
34	COc1ccc(C2Cc3ccccc3C(=O)O2)cc1 (configuration not stated)	15	i	1.1	95	46	138	-0.1
35	O=c1c2ccccc2nc(SCc2cn3ccsc3n2)n1-c1ccccc1F	-9	i	0.93	74	-3	114	1.9
36	CCCCOCCCNC(=O)c1ccc(OCC)cc1	7	i	0.9	112	-69	58	-2.5
37	CCCn1c(C)cc(/C=C(\C#N)C(=O)OCC(=O)NC(=O)NC(C)(C)C)c1C	6	i	0.91	102	51	61	-4.0
38	CC(C)c1ccc(N(C(=O)c2csnn2)C(C(=O)NC(C)(C)C)c2ccncc2)cc1 (configuration not stated)	-10	i	1.1	82	.	.	-1.3
39	COc1cc(C(=O)NCc2ccccn2)ccc1OCc1c(C)noc1C	1	.	.	107	-31	115	-1.3
40	COc1ccc(NC(=O)CC2C(=O)N(c3ccccc3)C(=O)N2Cc2ccco2)cc1 (configuration not stated)	-4	i	0.88	61	-58	57	.
41	CN1CCCN(c2ncnc3scc(-c4ccc(F)cc4)c23)CC1	-1	i	1.1	107	-52	141	.
42	CCOc1ccc2ccccc2c1/C=N/NC(=O)CC1(C)OCCCO1	-4	i	0.93	100	0	142	-1.1
43	COc1cccc(OC)c1C(=O)Nc1ccc2c(c1)Cc1ccccc1-2	-1	i	1.1	97	.	.	.
44	NC(=O)C(CC(=O)O)NC(=O)[C@@H]1CCCNc2c(I)cc([N+](=O)[O-])cc2C(=O)N[C@@H](CO)C(=O)N[C@@H](Cc2ccc(O)cc2)C(=O)N1 (some centres not stated)	-12	i	0.97	109	-10	108	-1.0
45	CNC(=S)N(CCc1ccccc1)Cc1cc2cc(OC)c(OC)cc2[nH]c1=O	1	i	0.95	136	62*	98*	1.2
46	CC(Oc1ccc(F)cc1)c1ccnc2nc(/N=C/N(C)C)nn12 (configuration not stated)	-2	i	0.93	102	.	.	.
47	COc1ccc(OC)c(-c2csc(N3CCC(c4ccccc4)CC3)n2)c1	-5	i	1.1	99	.	.	.
48	COc1cccc(-c2csc(N3CCN(Cc4ccccc4)CC3)n2)c1	0	i	1.1	104	-26	99	-1.3
49	Cc1cc(NS(=O)(=O)c2ccc(NC(=O)c3cc(-c4cccnc4)nc4ccc(Cl)cc34)cc2)no1	-2	i	0.89	100	.	.	-1.8
50	Cc1cc(OC(=O)c2c(Cl)cccc2Cl)nc(C)n1	-8	i	0.89	92	8	113	-1.1
51	COc1ccc(CCNC(=O)C(=O)NN=C2CCCCCCC2)cc1OC	.	i	0.97	108	.	.	.
52	O=C(NCC(=O)N(CC1CCCO1)C(C(=O)NC1CCCCC1)c1cccnc1)c1cccs1 (configuration not stated)	1	i	0.93	98	-92	99	.
53	Cn1c(=O)[nH]c(=O)c2c1nc(OC(=O)c1ccccc1)n2CC(O)COc1ccc(F)cc1 (configuration not stated)	2	i	1	96	.	.	-2.2
54	O=C(c1ccco1)N(CCO)Cc1cc2cc3c(cc2[nH]c1=O)OCO3	12	i	0.98	118	22	54	.
55	COc1cc(/C=C2/C(=O)ON=C2C)ccc1OCc1ccccc1F	-8	i	0.77	71	3	130	-1.8
56	COc1ccc2[nH]cc(CCCN3C(=O)c4ccccc4C3=O)c2c1	-10	i	1	91	.	.	-1.2
57	O=C(N/N=C/c1cc2c(cc1Cl)OCO2)c1ccc2c(c1)OCCO2	.	i	0.91	105	.	.	.
58	COCc1cc(Sc2c(Cl)cccc2Cl)nc(-c2ccccc2)n1	3	i	1.2	98	3	108	-2.6
59	COc1ccc(CNC(=O)c2csc(Cc3ccccc3)n2)cc1	-8	i	0.94	101	20	148	-2.0
60	Cc1ccccc1C(=O)NNC(=O)c1cccc([N+](=O)[O-])c1	2	i	0.89	104	0	128	.

# Structures shown so far that contain a cyano group:
No.	molecule	PKD1 inh	HSV replic up	HSV replic up primary fold	RGS16-Gao	INS promoter inh	INS promoter inh cell count	GALR2 agonist
17	N#CC1(C#N)COC23CCCCC2C1(C#N)C(=N)O3 (configuration not stated)	7	i	1.1	99	27	51	-0.8
37	CCCn1c(C)cc(/C=C(\C#N)C(=O)OCC(=O)NC(=O)NC(C)(C)C)c1C	6	i	0.91	102	51	61	-4.0

# Next records
No.	molecule	PKD1 inh	HSV replic up	HSV replic up primary fold	RGS16-Gao	INS promoter inh	INS promoter inh cell count	GALR2 agonist
61	O=C(C1CCN(C2CCN(Cc3ccc4c(c3)CCO4)CC2)CC1)N1CCOCC1	-3	i	1	106	.	.	.
62	COC(=O)COc1nc(C)c(Br)c(OC)n1	-13	i	0.95	103	33	106	-1.3
63	O=C(O)CCN(CCC(=O)O)S(=O)(=O)c1ccccc1	6	i	0.99	108	-39	82	-1.6
64	O=C(OC(C(=O)NCC1CCCO1)c1ccccc1F)c1ccco1 (configuration not stated)	-1	i	0.87	110	-38	143	-0.4
65	Cc1nn(Cc2ccc(Cl)cc2Cl)c(C)c1NC(=O)c1nn(C)cc1Cl	-6	i	0.99	95	-11	181	-1.8
66	O=S(=O)(Nc1nc2ccccc2nc1Nc1ccc2c(c1)OCCO2)c1cccs1	-4	i	0.76	98	27	93	-0.3
67	COc1ccccc1C1CC(c2ccc(Cl)cc2Cl)Nc2nc(N)nn21 (configuration not stated)	2	i	0.87	102	.	.	-0.3
68	NC(=S)N=Nc1c(O)n(CCCl)c2ccc(Cl)cc12	-7	i	0.9	97	.	.	.
69	CC1=C(C(=O)OCCOC(C)C)C(c2cc3c(cc2Br)OCO3)C2=C(CCCC2=O)N1 (configuration not stated)	-4	i	0.76	105	53	91	-0.7
70	CC(=O)NC1=NN(C(C)=O)C(c2ccc(C(C)C)cc2)S1 (configuration not stated)	12	i	1	34	-22	95	-2.9
71	CN1C(CC(=O)Nc2ccc(Cl)cc2Cl)c2ccccc2CC1(C)C (configuration not stated)	.	i	1	91	.	.	.
72	COc1ccc(N2CCN(C(c3cccc(OC)c3OC)c3nnnn3C3CCCC3)CC2)cc1 (configuration not stated)	-2	i	0.91	97	49	126	-1.9
73	CCOc1ccc(NC(=O)c2cc(F)c(F)cc2Cl)cc1OCC	1	i	0.95	98	.	.	.
74	CCOP(=O)(OCC)C(NC(=O)Nc1ccc(Cl)c(Cl)c1)C(N)=O (configuration not stated)	-2	i	1.1	87	0	77	-1.4
75	O=C(Nc1ccccc1Cl)/C(Cl)=C(\Cl)S(=O)c1ccccc1 (configuration not stated)	-3	i	0.62	96	.	.	.
76	CCn1c(/C=C2\C(=O)Nc3ccccc32)nc2ccccc2c1=O	46	i	0.78	111	.	.	-0.6
77	O=C(NCCc1ccccc1)C1CCN(C2CCN(Cc3ccco3)CC2)CC1	-3	i	0.95	106	.	.	.
78	CCCCn1c(N)c(N(CC(C)C)C(=O)CCCSc2nncs2)c(=O)[nH]c1=O	-3	i	0.94	96	42	170	.
79	COC(=O)CCNC(=O)Cn1cnc2sc3c(c2c1=O)CCCC3	1	i	0.97	98	53	107	.
80	COc1cc(/C=C2/C(=O)ON=C2c2ccccc2)ccc1O	-7	i	0.97	75	0	115	-2.0
81	CCCCn1nc(CC(=O)NCCN(CC)CC)c2ccccc2c1=O	.	i	0.9	99	.	.	.
82	Cc1nc(NC2=NC(C(=O)Nc3ccc(Cl)cc3)CC(=O)N2)nc2ccccc12 (configuration not stated)	1	i	1.2	107	-7	140	-1.1
83	O=C(Nc1nnc(C2CC2)s1)C1=NN(C2CCS(=O)(=O)C2)C(=O)CC1 (configuration not stated)	2	i	0.92	98	.	.	.
84	O=C(c1c(F)cccc1F)N(Cc1cccs1)C1CCCC1	1	i	1	106	13	112	.
85	C1CN=C(NC23CC4CC(CC(C4)C2)C3)C1	-2	i	0.97	100	0	104	-0.8

# Reformatted: results already given.
# Each structure is followed by: PKD1 inh	HSV replic up	HSV replic up primary fold	RGS16-Gao	INS promoter inh	INS promoter inh cell count	GALR2 agonist
[11] CCOC(=O)c1nc2ccccc2nc1C
  -6	i	0.85	102	-129	119	-1.5
[8] COc1ccc(-c2noc(CCC(=O)O)n2)cc1
  -9	i	0.95	94	-83	132	-1.4
[7] CCOC(=O)c1ccc(NC(=O)Oc2cc(C)c(Cl)cc2C(C)C)cc1
  .	i	0.8	95	.	.	.

# From PubChem BioAssay
